High-throughput results (PubChem BioAssay)
KCNQ2 inh: KCNQ2 potassium channel inhibitors, primary screen, cell-based, CHO-K1, FluxOR thallium flux, B-score (AID 2156). 20 min; active compounds read low; only compounds with negative scores are shown here; some inactives read as strong as hits. B-score at 10 µM. 310,000 tested, 1.1% active;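 active means fluorescence ratio B-score at most minus 3 library SDs, with starting brightness B-score within 2 library SDs, cut at about -5.5 in these data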
Target sequence (O88943 whole entry, looked up): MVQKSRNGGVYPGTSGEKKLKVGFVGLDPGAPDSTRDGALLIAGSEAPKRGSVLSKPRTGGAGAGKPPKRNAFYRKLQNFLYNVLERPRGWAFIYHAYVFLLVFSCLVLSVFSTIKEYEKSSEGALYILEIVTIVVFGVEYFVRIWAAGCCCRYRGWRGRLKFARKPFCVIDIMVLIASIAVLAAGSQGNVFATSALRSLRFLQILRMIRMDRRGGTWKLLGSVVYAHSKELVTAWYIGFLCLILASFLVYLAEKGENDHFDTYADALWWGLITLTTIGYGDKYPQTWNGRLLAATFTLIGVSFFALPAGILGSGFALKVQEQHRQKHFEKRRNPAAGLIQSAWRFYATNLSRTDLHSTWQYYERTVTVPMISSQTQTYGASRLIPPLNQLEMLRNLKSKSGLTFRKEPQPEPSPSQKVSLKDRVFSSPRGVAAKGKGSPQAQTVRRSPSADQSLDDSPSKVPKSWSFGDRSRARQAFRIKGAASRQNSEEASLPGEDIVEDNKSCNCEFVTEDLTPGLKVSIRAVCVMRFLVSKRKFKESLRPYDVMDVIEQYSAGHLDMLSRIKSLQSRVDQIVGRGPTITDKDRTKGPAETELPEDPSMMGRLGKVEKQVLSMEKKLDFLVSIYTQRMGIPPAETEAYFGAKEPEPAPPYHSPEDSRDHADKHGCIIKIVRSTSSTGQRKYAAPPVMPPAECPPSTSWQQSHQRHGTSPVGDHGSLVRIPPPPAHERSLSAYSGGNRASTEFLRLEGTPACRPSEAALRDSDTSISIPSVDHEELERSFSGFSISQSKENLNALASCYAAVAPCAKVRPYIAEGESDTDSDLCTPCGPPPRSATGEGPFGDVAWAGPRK
KCNQ2 inh baseline: recorded beside KCNQ2 inh, whose call it bears; B-score; measured here: initial fluorescence intensity artifact check;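 brightness before thallium and not channel activity; 0 = typical well and far values either way flag optical interference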
* hit, by the source's call; i = inactive. This is a subset. The share of hits here may be higher or lower than overall.

The opening 4 compounds, ahead of the listing:
Value order – KCNQ2 inh | KCNQ2 inh baseline
1. FC(F)(F)c1ccc2c(c1)N(CCCN1CCN(CCCl)CC1)c1ccccc1S2
  -7* | 2*
2. CNP(=O)(Oc1ccccc1)OC12CC3CC(CC(C3)C1)C2 (configuration not stated)
  i | -0.25
3. Cc1cccc(NC(=S)N2CC3CC(C2)c2cccc(=O)n2C3)c1C (configuration not stated)
  i | -0.56
4. Cc1c(N=Nc2c(O)[nH]c(=S)[nH]c2=O)c(=O)n(-c2ccccc2)n1C
  i | -0.37

The list itself, from the first entry:
Value order – KCNQ2 inh | KCNQ2 inh baseline
1. FC(F)(F)c1ccc2c(c1)N(CCCN1CCN(CCCl)CC1)c1ccccc1S2
  -7* | 2*
2. CNP(=O)(Oc1ccccc1)OC12CC3CC(CC(C3)C1)C2 (configuration not stated)
  i | -0.25
3. Cc1cccc(NC(=S)N2CC3CC(C2)c2cccc(=O)n2C3)c1C (configuration not stated)
  i | -0.56
4. Cc1c(N=Nc2c(O)[nH]c(=S)[nH]c2=O)c(=O)n(-c2ccccc2)n1C
  i | -0.37
5. CCOC(=O)c1c(-c2ccc(OC)cc2)oc2ccc(OC(=O)N(C)C)cc12
  i | 1.4
6. CCC(=O)CC(c1ccc([N+](=O)[O-])cc1)c1c(O)c2ccccc2oc1=O (configuration not stated)
  i | -0.38
7. COc1ccc(C(=O)C2CCCN(Cc3cnc(C)s3)C2)cc1OC (configuration not stated)
  i | -1.7
8. Cc1cc[n+](Cc2ccccc2)cc1
  i | -0.19
9. CN(C)CCN=Cc1c(O)n(CCC2=CCCCC2)c(=O)[nH]c1=O
  i | -0.25
10. CCOc1cc2c(cc1OCC)-n1cccc1C(c1ccccc1F)NC2 (configuration not stated)
  i | 0.25
11. CC(C)[C@@]1(NC(=O)[C@@H]2C[C@@H]3c4cccc5[nH]cc(c45)C[C@H]3N(C)C2)O[C@@]2(O)[C@@H]3CCCN3C(=O)[C@H](Cc3ccccc3)N2C1=O
  i | 0.26
12. CCC(C)C12CN3CCN(CC(C)(C3)C1=O)C2 (configuration not stated)
  i | 1.3
13. NC(=O)Nc1ccc(C(=O)OCC(=O)Nc2ccc(Cl)cc2C(=O)c2ccccc2)cc1
  i | -0.63
14. CC(CN1CCOCC1)OC(=O)Cc1ccccc1 (configuration not stated)
  i | -0.1
15. O=C1NC(=O)N(c2ccc(F)cc2)C(=O)/C1=C/c1ccc(N2CCOCC2)cc1
  i | -1.1
16. O=P(Nc1cccc(Cl)c1)(Oc1ccccc1)Oc1ccccc1
  -5.6* | -0.89*
17. N[C@@H](Cc1c[nH]c2ccccc12)c1nnc(SCc2ccccc2F)o1
  i | -1.9
18. Cc1ccc2c(c1Cl)NC(C(=O)O)C1CC(Sc3ccccc3[N+](=O)[O-])C(Cl)C21 (configuration not stated)
  i | -0.5
19. Cc1c(C(=O)Nc2ccccc2)cc(-c2ccccc2)n1CCCN1CCOCC1
  i | -0.55
20. CCn1c(C)cc(/C=C2\C(=O)NC(=O)N(c3ccccc3C)C2=O)c1C
  i | 0.1
21. Cc1nc2c(-c3ccccc3)c(C)nn2c(C)c1CCC(=O)N1CCC2(CC1)OCCO2
  i | 1.6
22. COc1cc2c(cc1OC)C(C1c3cc4c(cc3CCN1C)OCO4)OC2=O (configuration not stated)
  i | 2.3
23. CCn1ccnc1CN1CCCC(C(=O)c2cc(Cl)ccc2OC)C1 (configuration not stated)
  i | 2
24. Cc1ccc(Cn2cc(C=O)c(-c3ccc(F)cc3)n2)cc1
  i | 0.27
25. Clc1ccccc1CN1CCNCC1
  i | -0.43
26. Fc1ccc(CNCCc2ccccc2)cc1
  i | 1.5
27. CC(=O)Nc1ccccc1C(=O)OCC(=O)Nc1ncccn1
  i | -0.62
28. CCCCn1c(O)c(/C=C/C=Nc2ccccc2)c(=O)[nH]c1=O
  i | 3.8
29. COc1ccccc1N1CCN(Cc2ccc(Cl)cc2Cl)CC1
  i | -2.5
30. O=C1NC(=O)C(=Cc2ccc(-c3ccc(Cl)cc3)o2)C(=O)N1
  i | -0.32
31. CCCCn1c(O)c(C(C)=NCCN2CCOCC2)c(=O)[nH]c1=O
  i | 0.26
32. CCOP(=O)(OCC)C(c1ccccc1)N(C)C=O (configuration not stated)
  i | 2.1
33. CCOP(=O)(OCC)C1(O)C(=O)Nc2ccc(Br)cc21 (configuration not stated)
  i | -0.51
34. CCN(CCNc1ccc([N+](=O)[O-])c2cccnc12)S(=O)(=O)c1ccccc1
  i | -0.23
35. COc1ccc(C(=O)OC2CC3CCC(C2)[N+]3(C)[O-])cc1OC (configuration not stated)
  i | 1.2
36. O=c1[nH]c(=S)n(CCC2=CCCCC2)c(O)c1C=NC1CCN(Cc2ccccc2)CC1
  i | 1.1
37. CC(=O)O[C@]1(c2ccccc2)CCN(C)[C@H]2CCCC[C@@H]21
  i | -0.46
38. CCCCSC1=NN1c1nc(N)nc(C)c1CC
  i | 2.1
39. COc1ccc2[nH]c3c(c2c1)CCN[C@H]3C
  i | 0.48
40. CCCCCCC(=O)N/N=C/c1c(O)n(CCc2ccccc2)c(=O)[nH]c1=O
  i | -1.4
41. CCOc1cc(C=C2C(=O)NC(=O)NC2=O)ccc1OCC(=O)N1CCOCC1
  i | 2
42. O=C1NCN(c2ccccc2)C12CCNCC2
  i | 2.3
43. O=c1[nH]c(O)c(N=Nc2ccc([N+](=O)[O-])cc2)c(=O)[nH]1
  i | -0.05
44. CC(=NCCN(C)C)c1c(O)n(Cc2ccccc2)c(=O)[nH]c1=O
  i | 0.03
45. COc1ccc(-c2nn(CCC#N)cc2C(=O)NCc2ccccc2)cc1[N+](=O)[O-]
  i | 0.12
46. C/C=C(\C)C(=O)N[C@@H](c1ccccc1)[C@@H](O)C(=O)O[C@H]1C[C@@]2(O)[C@@H](OC(=O)c3ccccc3)C3[C@](C)(C(=O)[C@H](OC(C)=O)C(=C1C)C2(C)C)[C@H](O)C[C@H]1OC[C@@]31OC(C)=O (some centres not stated)
  i | 0.42
47. CCC1(CC)C(=O)N(Cc2ccccc2)C(=O)N(Cc2ccccc2)C1=O
  -8.2* | -1.2*
48. Cc1ccc(NC(=O)CN2C(=O)CN=C(c3ccccc3)c3cc(Cl)ccc32)cc1
  i | -0.07
49. Cc1cccc(N=Nc2ccc(N(C)C)cc2)c1
  i | -2
50. COc1ccc(-n2c(O)c(C=NCCN3CCN(C(C)=O)CC3)c(=O)[nH]c2=S)cc1
  i | -1.4
51. CCCCn1c(O)c(/C=N/NC(=O)c2ccncc2)c(=O)[nH]c1=O
  i | 0.29
52. COc1ccc(C(=O)C2CCCN(Cc3ccsc3)C2)cc1OC (configuration not stated)
  i | 0.81
53. O=S1(=O)N(Cc2ccc(F)cc2)CCCN1Cc1ccccc1Cl
  i | 1.2
54. CCc1nnc(NC(=O)CCc2nc(C3=CCN(C)CC3)no2)s1
  i | 1.1
55. CCCC[n+]1cc(=N)o[n-]1
  i | 0.01
56. CC(=O)C1C2c3ccccc3OC1(C)N=c1s/c(=C/c3cn(C)nc3C)c(=O)n12 (configuration not stated)
  i | 1
57. C/C(=N\Nc1ccccc1)c1c(O)[nH]c(=O)[nH]c1=O
  i | 0.22
58. O=c1[nH]c(=O)n(Cc2ccco2)c(O)c1C=NC1CCN(Cc2ccccc2)CC1
  i | -0.04
59. Cc1cc(NC(=O)COC(=O)c2c(C)nn(Cc3ccccc3Cl)c2C)no1
  i | 0.32
60. CC(C)CCNC(=O)c1c(N)n(Cc2ccc3c(c2)OCO3)c2nc3ccccc3nc12
  i | 0.94

Next results follow:
Value order – KCNQ2 inh | KCNQ2 inh baseline
61. O=c1cccc2n1CC1CC2CN(C(c2ccccc2)c2sc3ncnn3c2O)C1 (configuration not stated)
  i | 3.8
62. CN(C)C(=O)Oc1ccc(Br)cc1C(=O)Nc1ccc(F)c(Cl)c1
  i | 1.2
63. CCOc1cccc(CNCCc2c(C)[nH]c3ccc(OC(F)(F)F)cc23)c1O
  i | -0.47
64. CCOc1ccccc1-n1c(O)c(C=Nc2c(C)n(C)n(-c3ccccc3)c2=O)c(=O)[nH]c1=O
  i | -0.43
65. CCOc1cc2c(cc1OCC)-n1cccc1C(c1cc(OC)ccc1F)NC2 (configuration not stated)
  i | -0.41
66. CCc1c(C(=O)NN2C(=O)C3C4CCC(O4)C3C2=O)csc1C (configuration not stated)
  i | -0.31
67. CCOC(=O)c1cccc(-[n+]2c(-c3ccccc3)cc(-c3ccccc3)cc2-c2ccccc2)c1
  -7.3* | -1.4*
68. CN(C)c1ccc(CCN2CCOCC2)cc1
  i | -0.18
69. CCOc1ccc(-c2cc(C)[n+](CCN3CCOCC3)c(-c3ccc(OCC)cc3)c2)cc1
  i | 0.8
70. CCn1c(P(C)(=O)O)nc2cc(NC(=O)c3ccccc3F)ccc21
  i | 2.3
71. Cc1ccccc1-n1c(C)cc(/C=C2/C(=O)NC(=O)N(Cc3ccco3)C2=O)c1C
  i | 0.99
72. O=c1c2ccccc2nc(CNCC2CCCO2)n1-c1ccc(F)cc1 (configuration not stated)
  i | -0.23
73. CC12CCCCC1N(O)CN2O (configuration not stated)
  i | -0.22
74. OC1C2CN3CN(C2)CC1(c1ccccc1)C3 (configuration not stated)
  i | 3.5
75. COc1ccc(-c2cc(=NCCC(=O)O)c3cc(C)ccc3o2)cc1
  i | -0.27

Fetched by structure from above:
Value order – KCNQ2 inh | KCNQ2 inh baseline
28. CCCCn1c(O)c(/C=C/C=Nc2ccccc2)c(=O)[nH]c1=O
  i | 3.8
15. O=C1NC(=O)N(c2ccc(F)cc2)C(=O)/C1=C/c1ccc(N2CCOCC2)cc1
  i | -1.1
65. CCOc1cc2c(cc1OCC)-n1cccc1C(c1cc(OC)ccc1F)NC2 (configuration not stated)
  i | -0.41
29. COc1ccccc1N1CCN(Cc2ccc(Cl)cc2Cl)CC1
  i | -2.5
25. Clc1ccccc1CN1CCNCC1
  i | -0.43

New compounds follow
Value order – KCNQ2 inh | KCNQ2 inh baseline
76. N#CCCn1cc(C(=O)Nc2ccc([N+](=O)[O-])cc2)c(-c2ccccc2)n1
  i | -1.8
77. CN1CCc2cc3c(c4c2C1Cc1ccccc1-4)OCO3 (configuration not stated)
  i | 1.2
78. O=C(COC(=O)Cc1ccccc1)Nc1cc(S(=O)(=O)N2CCOCC2)ccc1N1CCCC1
  i | 0.83
79. C#CCN(C)[C@H](C)Cc1ccccc1
  i | 0.85
80. CCN(CC)P(=O)(c1n(CC)cc[n+]1CC)N(CC)CC
  i | 0.6
81. Cn1c(=O)n(C)c2cc([N+](=O)[O-])c(N3CCNCC3)cc21
  i | 1.1
82. CN1CCN(c2ccc([N+](=O)[O-])c(N)c2)CC1
  i | -0.34
83. COCCNC(=O)c1ccc(N2CC3CC(C2)c2cccc(=O)n2C3)c([N+](=O)[O-])c1 (configuration not stated)
  i | 0.25
84. COc1ccc(CCNCc2c(OC)ccc3ccccc23)cc1
  i | -0.11
85. O=c1cccc2n1CC1CC2CN(CC(O)CN2CC3CC(C2)c2cccc(=O)n2C3)C1 (configuration not stated)
  i | 1.9
86. O=c1[nH]c(=O)n(-c2ccc(F)cc2)c(O)c1/C=C1\C=Nc2ccccc21
  i | 12
87. CN=C1CN(O)C(c2ccccc2)=c2cc(Cl)ccc2=N1
  i | -0.57
88. COc1ccc2c(c1)c(C(=O)CN1CCC3(CC1)OCCO3)c(C)n2Cc1ccccc1
  i | 0.3
89. CCC(C)C1N=C(c2ccccc2)c2cc(Cl)ccc2N(CC(=O)NCc2ccco2)C1=O (configuration not stated)
  i | 1.1
90. Cc1cc(=O)oc2c(C)c(OCC(=O)N3CCN(Cc4ccc5c(c4)OCO5)CC3)ccc12
  i | 0.4
91. CC(C)(O)[C@H]1O[C@H]2CC[C@@]3(C)[C@@](O)(CC[C@H]4Cc5c([nH]c6ccccc56)[C@@]43C)C2=CC1=O
  i | 3.5
92. CCOc1ccc(Cc2c(O)[nH]c(=O)[nH]c2=O)cc1
  i | 0.23
93. NC(=O)CSc1nnc([C@@H](N)Cc2c[nH]c3ccccc23)o1
  i | -2.8
94. Cn1c2ccccc2c2c(C(=O)N3CCC4(CC3)OCCO4)cn(C3CCCC3)c(=O)c21
  i | 1.5
95. C=C(C)[C@@]12OC3(c4ccccc4)O[C@@H]1C1[C@@H]4O[C@]4(CO)[C@@H](O)[C@]4(O)C(=O)C(C)=C[C@H]4[C@@]1(O3)[C@H](C)[C@H]2OC(=O)/C=C/C=C/c1ccccc1 (some centres not stated)
  i | 0.37
96. CNP1(NC)=NC(C(F)(F)F)=NC(C(F)(F)F)=N1
  i | 0.56
97. CCCCCn1c(=O)c(C(=O)NCc2ccccc2Cl)c(O)c2ccccc21
  i | 0.84
98. O=C(COc1ccc(Cl)cc1)NC1CN2CCC1CC2 (configuration not stated)
  i | -0.21
99. CCCCSP1(=S)NCCCN1
  i | 0.08
100. CCC1=C(C)C(N2CCOCC2)=NP(N2CCOCC2)(N2CCOCC2)=N1
  i | 0.21
101. CCOC(=O)C(O)(c1ccc(N(CC)S(=O)(=O)c2ccccc2)cc1)C(F)(F)F (configuration not stated)
  i | -0.01
102. C=CCC1C(=O)NC(=S)NC1=O
  i | -0.72
103. COC(=O)C1=C(c2ccccc2)C[C@@H]2CC[C@H]1N2C(=O)NC1CCCCC1
  i | -1.1
104. CCC(C)C1NC(=O)C(C(C)=O)=C1O (configuration not stated)
  i | -0.46
105. CC1COC2N=C(N[N+](=O)[O-])NC2O1 (configuration not stated)
  i | 1.3
106. CN(C)CCCNCC(=O)Nc1ccc(Cl)cc1C(=O)c1ccccc1
  i | -0.15
107. O=S(=O)(c1ccc(O)cc1)c1ccc(O)cc1
  i | 1.2
108. N#CCCn1cc(C(=O)NCc2ccccc2)c(-c2ccc3c(c2)OCCO3)n1
  i | 1.5
109. C/C=C/CC1(CC)C(=O)NC(=S)NC1=O
  i | 0.19
110. COc1cccc(CN2CCN(C(=O)COc3ccc4ccccc4c3)CC2)c1
  i | -0.67
111. COc1ccc(CN2CCN(c3ccccc3F)CC2)c(OC)c1
  i | 0.67
